NPR1 antag: human Npr1 receptor antagonism; P16066; HEK293 hNpr1 GloSensor cGMP, ANP-stimulated luminescence; Potency, µM (doses to about 46.3 µM), for inactives: at the highest dose activity change, negative = inhibition, actives largely listed as inhibitors; 76,000 compounds, 1.6% hits; active = well fitted inhibition curve with a large enough effect; inconclusive = small, poorly fitted or top-dose-only effect; inactive = no such curve, though single readings can be large or run the other way;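 further: nearly all actives have a fitted effect of over 60% in size; nearly all hits also lower the signal before the agonist is added; a reference antagonist and vehicle were the controls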
Target sequence (P16066 whole entry, looked up): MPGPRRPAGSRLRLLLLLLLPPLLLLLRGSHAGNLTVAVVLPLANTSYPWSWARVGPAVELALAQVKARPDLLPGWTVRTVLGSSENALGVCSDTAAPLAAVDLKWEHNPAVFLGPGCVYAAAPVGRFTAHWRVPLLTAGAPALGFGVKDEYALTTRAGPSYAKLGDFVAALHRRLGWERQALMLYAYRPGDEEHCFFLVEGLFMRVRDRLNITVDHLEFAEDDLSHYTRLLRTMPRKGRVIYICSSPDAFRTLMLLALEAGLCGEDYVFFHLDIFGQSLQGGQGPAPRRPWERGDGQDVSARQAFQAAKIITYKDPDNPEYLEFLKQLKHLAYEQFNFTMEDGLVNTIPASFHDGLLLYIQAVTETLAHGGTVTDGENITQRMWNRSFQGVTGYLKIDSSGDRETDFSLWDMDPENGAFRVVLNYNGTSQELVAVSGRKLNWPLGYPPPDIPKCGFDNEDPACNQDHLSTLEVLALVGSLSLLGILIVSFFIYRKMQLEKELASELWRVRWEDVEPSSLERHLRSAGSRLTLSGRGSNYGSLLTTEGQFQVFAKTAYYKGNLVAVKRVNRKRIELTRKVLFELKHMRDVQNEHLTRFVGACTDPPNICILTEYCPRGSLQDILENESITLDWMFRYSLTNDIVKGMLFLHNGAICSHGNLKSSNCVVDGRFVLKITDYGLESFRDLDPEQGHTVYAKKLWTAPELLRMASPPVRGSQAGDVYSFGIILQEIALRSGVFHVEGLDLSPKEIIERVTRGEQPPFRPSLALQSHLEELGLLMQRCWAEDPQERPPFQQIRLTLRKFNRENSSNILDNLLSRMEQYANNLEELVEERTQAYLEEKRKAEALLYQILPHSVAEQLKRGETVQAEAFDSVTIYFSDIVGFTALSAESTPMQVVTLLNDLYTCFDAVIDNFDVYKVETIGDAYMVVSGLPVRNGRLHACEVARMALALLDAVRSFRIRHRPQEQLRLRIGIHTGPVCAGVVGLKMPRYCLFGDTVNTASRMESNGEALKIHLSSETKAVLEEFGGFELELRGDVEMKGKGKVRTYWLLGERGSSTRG
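Compound pre-incubated 30 min at room temperature on GloSensor-loaded HEK293 cells stably carrying hNpr1 and the pGS-40F cGMP biosensor. Stimulation uses hNppA at 0.1 nM final; luminescence is taken at baseline and 20 min post-agonist.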
* marks the source's active call; other numbers are inactive results; ? = inconclusive; [ ] = dose if it differs, or a comment. On the % scale 0 is the no-effect control and ±100 the full control effect; potency means the concentration at half of the fitted maximal effect.

smiles | NPR1 antag
O=C(C1CCCC1)N1CCOC[C@H](Oc2ccc(C(F)(F)F)cc2)C1 | ?
O=C(c1cc(-c2cccnc2)nc2ccccc12)N1CCCC2(CCOC2)C1 (stereo not drawn) | -2%
COCCC1(NS(C)(=O)=O)CCN(C(=O)c2c(C)noc2C)CC1 | -1%
O=C(O)c1ccc(CN2Cc3[nH]cnc3C[C@H]2C(=O)NCc2ccco2)cc1 | 4%[70.6 µM]
CC(C)CNC(=O)C(NC(=O)CC(C)C)C1CCN(C(=O)c2ccccc2)CC1 (stereo not drawn) | -9%
O=C(NCC1CN(Cc2ccccn2)CC12CN(c1ccccc1)C2)c1ccccc1 (stereo not drawn) | 0%[70.6 µM]
COCC(=O)N[C@@H]1CN(Cc2ccccc2)C[C@H]1CN(C)C | 0%
FC(F)(F)c1ccc2nc([C@H]3CCN(CC4CC4)C3)[nH]c2c1 | -6%[70.6 µM]
Cc1[nH]ncc1CNC(=O)C1CCN(c2cn[nH]c(=O)c2)C1 (stereo not drawn) | 7%
COCCN1Cc2ccc(Nc3ccc(OC)cc3)nc2C(C)(C(=O)NC2COC2)C1 (stereo not drawn) | -5%[70.6 µM]
COc1ccc(-c2cnc3n2CC(C(=O)N2CCCCC2)CC3)cc1 (stereo not drawn) | -25%
Cc1noc([C@@H]2C[C@H](NC(=O)Nc3cccc(F)c3)CN2C)n1 | 3%[70.6 µM]
Cc1noc(C2CCCCCN2C(=O)c2ccnn2C)n1 (stereo not drawn) | 4%
CN1C[C@H](O)C[C@H]1c1nnc2n1CCN(C(=O)CCc1c[nH]c3ccccc13)CC2 | 4%
O=C(c1ccccc1F)N1CCC2(CC1)C(=NC1CCCCC1)NC(=O)N2c1cccnc1 | -1%
Cc1ccc(CN2CCN(c3ncncn3)CC2=O)cc1 | 5%
COc1cc(Cl)c(C)cc1NC(=O)CN1C(=O)NC(c2ccc(Cl)cc2)C2=C1COC2=O (stereo not drawn) | -15%
Cc1ccsc1CN1CCc2nc(N(C)C)[nH]c(=O)c2CC1 | -6%
CCn1cc(CNC2CC(=O)N(CCc3ccccc3)C2)cn1 (stereo not drawn) | 0%
Cc1nn(CC(=O)N2CCCCCC2)c(=O)c2nc(-c3ccccc3)sc12 | 0%
Cc1ccc(OCC(=O)N2CCC(c3noc(-c4ccncc4)n3)C2)cc1 (stereo not drawn) | -1%
O=C(O)[C@@H]1CN(C(=O)CCCn2cncn2)C[C@H]1c1ccc2c(c1)OCO2 | 9%
Cc1cccc(CN2CCc3nc(C(=O)Nc4ccc(Cl)cc4)oc3CC2)c1 | 8.9µM*
COCCNC(=O)[C@@H]1CCC[C@@H](NC(=O)NC2(c3ccccc3)CCOCC2)CN(C)C(=O)C1 | 1%
COc1cccc(C(=O)N2CCCCC2c2n[nH]c(C)n2)c1 (stereo not drawn) | 1%

A second format for some results above:
NPR1 antag	Molecule
-6%[70.6 µM]	FC(F)(F)c1ccc2nc([C@H]3CCN(CC4CC4)C3)[nH]c2c1
5%	Cc1ccc(CN2CCN(c3ncncn3)CC2=O)cc1
?	O=C(C1CCCC1)N1CCOC[C@H](Oc2ccc(C(F)(F)F)cc2)C1
-2%	O=C(c1cc(-c2cccnc2)nc2ccccc12)N1CCCC2(CCOC2)C1 (stereo not drawn)

Additional compounds follow.
smiles | NPR1 antag
COCC(=O)N(C1CCOCC1)C1CCN(C(=O)Cc2cccnc2)CC1 | 1%
CCNC(=O)N1CCC(Cc2ccc(C(=O)Nc3cccc(F)c3)cc2)CC1 | 11µM*
O=C(c1cccc(F)c1)N1CC(Oc2ccc(-c3nc(-c4ccccc4)no3)cc2)C1 | -1%
COc1ccc(C(=O)NC[C@H]2O[C@@H](CO)[C@@H](O)[C@H]2N2CCN(c3cccc(C(F)(F)F)c3)CC2)cc1 | -1%
O=C(N1C[C@@H](CO)[C@H](c2nc(C3CC3)no2)C1)C1(c2ccccc2)CC1 | 1%
Cn1ccnc1CN1C(=O)CO[C@H]2CN(C(=O)c3cnccn3)C[C@H]21 | 4%[70.6 µM]
O=C1CO[C@H]2CN(Cc3c[nH]c4ccccc34)C[C@H]2N1Cc1ccc(F)cc1 | -21%[70.6 µM]
COc1ccc(-c2cnc3n[nH]c(-c4ccccc4)c3n2)cc1 | -1%[70.6 µM]
O=C(NCCCN1CCCCCC1)C1CCN(C(=O)N2CC3CC(C2)[C@H]2CCCC(=O)N2C3)CC1 (stereo partly drawn) | 5%
CCCCS(=O)(=O)N[C@H]1CN(Cc2c(C)noc2C)C[C@@H]1C(C)C | 11%
COc1ccc(Cl)cc1C(=O)N1C[C@@H](F)C[C@H]1C(=O)N1CCCCC1 | -8%
COCc1ccc2c(c1)c(OC(C)(C)C(=O)NCCc1cccnc1)nn2Cc1ccccc1 | -9%
Cc1cnc(C(=O)N(C)C2CCc3nnc(C)n3CC2)cn1 (stereo not drawn) | -1%
COCCc1nncn1C1CCN(C(=O)c2ccc(C)cc2)CC1 | -7%
COc1ccc(N2CCN(C(=O)C3(c4ccc(NC(=O)C(C)C)cc4)CCC3)CC2)cc1 | 3%
CCN1CCC(N2CCCC(N3CCN(c4ccccc4OC)CC3)C2)CC1 (stereo not drawn) | 0%
c1csc(CN2CCC(Oc3ccccc3-c3nc(-c4cnccn4)no3)C2)c1 (stereo not drawn) | -13%
CCn1nc(C)cc1C(=O)N[C@H]1[C@H](O)[C@H](O)C[C@@H]1c1cccnc1 | -5%[70.6 µM]
COc1ccc(-c2ccc3nc(-c4cc(F)cc(F)c4F)oc3c2)c(OC)c1OC | 1%
COCCCNC(=O)c1ccc2c(c1)n(Cc1cccc(OC)c1)c(=O)c1ccnn12 | -6%
O=C(c1cccs1)N1CCC(c2nc(-c3ccccc3)no2)C1 (stereo not drawn) | -27%
CCCN1C(=O)Cc2cc(C(=O)NCc3ccc(C)c(C)c3)ccc21 | -15%
Cc1cccc(CNC(=O)C2(C)CCCCC(=O)N2)c1 (stereo not drawn) | 6%
CN1Cc2c(cc(N3CCOCC3)nc2-c2cccc(N[S+](C)(=O)[O-])c2)C1=O | 7%[70.6 µM]
CS(=O)(=O)N1CCN(C(=O)Nc2ccccc2)C[C@H]1C(=O)N[C@H](Cc1c[nH]c2ccccc12)C(N)=O | -1%

5 compounds from above, ordered by number of heavy atoms, descending.
smiles | NPR1 antag
COCCNC(=O)[C@@H]1CCC[C@@H](NC(=O)NC2(c3ccccc3)CCOCC2)CN(C)C(=O)C1 | 1%
CN1C[C@H](O)C[C@H]1c1nnc2n1CCN(C(=O)CCc1c[nH]c3ccccc13)CC2 | 4%
CCN1CCC(N2CCCC(N3CCN(c4ccccc4OC)CC3)C2)CC1 (stereo not drawn) | 0%
COCCc1nncn1C1CCN(C(=O)c2ccc(C)cc2)CC1 | -7%
FC(F)(F)c1ccc2nc([C@H]3CCN(CC4CC4)C3)[nH]c2c1 | -6%[70.6 µM]

New compounds follow:
smiles | NPR1 antag
COC(=O)c1ccc(NC(=O)N2CCCC(c3nn[nH]n3)C2)cc1 (stereo not drawn) | 2%
CN1CC2(CCN(C(=O)Cc3ccc(-n4cnnn4)cc3)CC2)CC1=O | 0%
Cc1onc(C(=O)N2C[C@@H](Oc3cccnc3)C[C@H]2C(N)=O)c1Cn1cccn1 | 5%
O=C(NC1CCN(C(=O)N2CC3CC(C2)[C@H]2CCCC(=O)N2C3)CC1)c1cccnc1 (stereo partly drawn) | 0%
COc1cc2cc(CN3CCC[C@H]3CO)c(-c3cccc(Cl)c3)nc2cc1OC | 2%
COc1ccc2ccc(OCc3nc(C(=O)N4CCCNC(=O)C4)co3)cc2c1 | ?
CN1CCOC[C@H]2CCN(C(=O)c3ccsc3)C[C@H]21 | -6%
O=C(NC1CCCN(c2cc(-c3ccc(F)cc3)[nH]n2)C1)c1cc(Cl)ccc1F (stereo not drawn) | -19%
CCc1nc(-c2c3n(c(=O)n(CC#N)c2=O)CCCCC3)no1 | 6%
N#Cc1cc2c(=O)n(CCCCN3CCCC3)ccc2[nH]c1=O | -3%
O=C1N(C2CCOCC2)C[C@H]2CN(CCCc3ccccc3)CCN12 | -9%[70.6 µM]
COc1ccc(-n2c(=O)c3c(n2Cc2ccccc2)CN(Cc2c(C)noc2C)CC3)cc1 | -9%
O=C1NCCOCCCN(C(=O)NCCc2ccccc2)[C@H]2CCC[C@@H]12 | 0%
CC1=C[C@@H](CNC(=O)c2cnccn2)[C@H](C(C)C)C[C@H]1CC(=O)O | 6%[70.6 µM]
CN(C)S(=O)(=O)N1CCCC(CCc2cccc(F)c2)C1 (stereo not drawn) | -4%
CN(C)C[C@@H]1CN(c2ncccn2)C[C@H]1NC(=O)c1ccccc1C(F)(F)F | 5%
COc1cccc(S(=O)(=O)N2CCC3(CC2)CC(N2CCOCC2)CCO3)c1 (stereo not drawn) | 4%
COCC(=O)N1CCCCCC1c1nnc(-c2ccccc2)o1 (stereo not drawn) | 6%
N#CC1CCN(C(=O)c2nc(-c3cccnc3)c3cnccn23)CC1 | 3%[70.6 µM]
Cc1nc(-c2cccc(Cl)c2)n(Cc2cc(=O)n3ccccc3n2)c(=O)c1CCO | -1%
Cc1cnc(C(=O)N[C@@H]2CCC[C@@H]2C(=O)NCCc2ccc(Cl)cc2)cn1 | 5%
COc1ccc(C[C@H](NC(=O)C2=C[C@@H](NC(=O)c3cc(OC)ccc3Br)[C@@H](O)[C@H](O)C2)C(N)=O)cc1 | 0%
CN(C)c1ccc(C(=O)N2CCC3(CC2)N=C(c2cccc(Br)c2)NO3)cc1 | -16%
O=C(NCc1ccccc1)C1CCN(c2cn[nH]c(=O)c2)C1 (stereo not drawn) | 2%
Cc1noc2c(-c3cccnc3NC3CCN(C)CC3)cc(-c3ccc(Cl)cc3)nc12 | -2%[70.6 µM]
c1ccc(O[C@H]2COCCN(c3nc4ccccc4s3)C2)cc1 | 1%[70.6 µM]
O=C(OCc1ccccc1)N1CCOCC12CCN(Cc1cccnc1)CC2 | -9%[70.6 µM]
O=C1NC(C(=O)NCc2cccnc2)Cn2cccc21 (stereo not drawn) | 2%
O[C@@H]1C[C@@H](c2nc(-c3ccc(OC(F)(F)F)cc3)no2)N(Cc2ncc[nH]2)C1 | -22%[70.6 µM]
CO[C@H]1C(=O)N(C(C)C)[C@H]1C1CCN(S(C)(=O)=O)CC1 | 2%
COc1ccc(C2Cn3nnc(-c4nc(-c5cccc(Cl)c5)no4)c3CO2)cc1 (stereo not drawn) | 1%
COC[C@@]12CC[C@@H](N3CCOCC3)C[C@H]1CCN(Cc1cnc(N(C)C)nc1)C2 | 0%
COc1ccc(-c2noc(Nc3ccc(C)c(C)c3)n2)cc1 | -19%
COc1ccccc1C1NC(=O)N(CC2CC2)C2=C1C(=O)OC2 (stereo not drawn) | 0%
Cc1ccccc1C(=O)N1CCC(c2nn(C)c(=O)[nH]2)CC1 | 16%[70.6 µM]
CCOC(=O)C1=C(C)N=C2SC=C(CC(=O)NC3CC3)N2C1c1ccccc1C (stereo not drawn) | ?
CC(=O)NCC(=O)N1CCC(N2C(=O)C(OCC3CC3)C23CCCCC3)CC1 (stereo not drawn) | 3%
COc1ccc(Cn2c3c(c(=O)n2Cc2ccccc2)CCN(Cc2cccc(O)c2)C3)cc1 | -2%
COc1ccc(CNC(=O)O[C@H]2COCCN(c3nc4ccccc4s3)C2)cc1 | -1%[70.6 µM]
O=C1CCN(Cc2ccc(C(F)(F)F)cc2)CCCC(c2nc(-c3cnccn3)no2)CCN1 (stereo not drawn) | -19%
CCCCc1ccc(NC(=O)Cn2cccc2-c2nc(-c3ccc4c(c3)OCO4)no2)cc1 | 6%
CCC(O)c1cc2n(n1)CCN(C(=O)c1nc(N)nc3c1CCCC3)C2 (stereo not drawn) | -4%
CNC(=O)N1C[C@@H](CN(C)C)[C@H](NC(=O)c2ccc(C(F)(F)F)cc2)C1 | -1%
COc1ccc(C(=O)N2CCC(c3nc(C4CCOCC4)no3)C2)cc1OC (stereo not drawn) | 12%
COc1cccc(-c2cc(C3CCN(C(=O)c4ccc(Br)cc4)CC3)[nH]n2)c1 | ?
CCc1nc2c(c(-c3ccc(Cl)cc3)n1)CCN([S+](=O)([O-])c1c(C)noc1C)CC2 | 1%
O=C(CC1CCCCC1)N1CC(CO)C2(CCNCC2)C1 (stereo not drawn) | -4%
COc1cc(=O)n2c(c1C(=O)Nc1ccc(F)c(F)c1)CCCC2 | -1%
CCc1nc(CN(C)C(C(=O)O)c2ccc(C(C)(C)C#N)cc2)no1 (stereo not drawn) | 0%
COc1ccccc1N1CCCc2ncc(C(=O)NCc3ccccc3)cc21 | 1%[70.6 µM]

Following part
smiles | NPR1 antag
COCC1CN(C(C)=O)CC12CCN(S(=O)(=O)c1ccc(F)cc1)CC2 (stereo not drawn) | -1%
Cc1ccc(C(=O)NCc2c(C)ncc3c2CCNC3)cc1Cl | 5%
CC1(C)C(=O)Nc2ccc(S(=O)(=O)N3CCC(c4noc(-c5ccccn5)n4)C3)cc21 (stereo not drawn) | 7%
O=C(C1CCN(C(=O)N2CC3CC(C2)[C@H]2CCCC(=O)N2C3)CC1)N1CCCC1 (stereo partly drawn) | -1%
O=C(CC1CCCN(c2cnn(CC3CC3)c(=O)c2)C1)NCCN1CCOCC1 (stereo not drawn) | 6%
Cn1cncc1C(=O)N1CCC(F)(c2nc(-c3ccncc3)no2)CC1 | 0%

An excerpt (hit frequency here may not be typical).
